Screens deposited in PubChem by Johns Hopkins Ion Channel Center.
KCNQ2 block: KCNQ2 channel blockers in CHO-K1 cells – cell-based, FluxOR thallium flux, B-score, primary screen (AID 2156); O88943; 20 min; hits give low values; only compounds with negative scores are shown here; some inactives read as strong as hits; B-score at 10 µM; 310,000 tested, 1.1% active;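 active = fluorescence ratio B-score at most minus 3 library SDs, with starting brightness B-score within 2 library SDs, cut at about -5.5 in these data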
Target sequence (O88943 whole entry, looked up): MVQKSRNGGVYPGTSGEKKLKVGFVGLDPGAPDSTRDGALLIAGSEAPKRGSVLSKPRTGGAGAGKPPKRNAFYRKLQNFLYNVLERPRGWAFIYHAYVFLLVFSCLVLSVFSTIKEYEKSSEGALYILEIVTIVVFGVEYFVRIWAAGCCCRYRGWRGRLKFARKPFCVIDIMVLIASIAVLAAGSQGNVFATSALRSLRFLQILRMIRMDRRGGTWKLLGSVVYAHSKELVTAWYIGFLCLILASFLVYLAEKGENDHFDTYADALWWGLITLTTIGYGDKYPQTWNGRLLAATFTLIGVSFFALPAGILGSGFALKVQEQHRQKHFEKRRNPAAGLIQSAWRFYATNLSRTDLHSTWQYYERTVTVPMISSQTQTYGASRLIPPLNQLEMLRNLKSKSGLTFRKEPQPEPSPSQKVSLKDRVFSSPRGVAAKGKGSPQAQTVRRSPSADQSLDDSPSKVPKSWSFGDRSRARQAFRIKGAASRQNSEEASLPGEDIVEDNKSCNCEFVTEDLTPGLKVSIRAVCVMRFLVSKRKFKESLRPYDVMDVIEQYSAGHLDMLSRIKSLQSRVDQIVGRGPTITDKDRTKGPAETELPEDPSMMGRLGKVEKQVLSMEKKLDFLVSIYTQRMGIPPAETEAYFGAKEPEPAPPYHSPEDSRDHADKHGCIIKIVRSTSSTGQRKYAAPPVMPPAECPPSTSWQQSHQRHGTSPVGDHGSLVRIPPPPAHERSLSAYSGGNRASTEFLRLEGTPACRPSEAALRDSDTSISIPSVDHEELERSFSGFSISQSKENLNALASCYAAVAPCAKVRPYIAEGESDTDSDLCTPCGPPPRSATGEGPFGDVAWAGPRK
KCNQ2 block baseline: second read-out of KCNQ2 block, no call of its own (marks repeat the call); B-score; measured here: initial fluorescence intensity artifact check;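 brightness before thallium and not channel activity; 0 = typical well and far values either way flag optical interference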
An asterisk follows results filed as active; i = inactive.

KCNQ2 block baseline | KCNQ2 block | Molecule
-0.11 | i | CC(C)CCNC1c2ccccc2C(=O)N1Cc1ccccc1 (stereo not given)
0.44 | i | CC(c1ccon1)N(C)Cc1cn(Cc2ccccc2)nc1-c1ccc2c(c1)OCO2 (stereo not given)
0.91 | i | CN1CCc2nc(SC(C(=O)O)c3ccccc3)c(C#N)c(-c3cccs3)c2C1 (stereo not given)
0.14 | i | Cc1cc(Cl)ccc1N1C(=O)CC(NNC(=O)c2cccnc2)C1=O (stereo not given)
-0.99 | i | COc1cccc(C2=NOC(C(=O)N3CCN(c4ccccc4)CC3)C2)c1OC (stereo not given)
0.7 | i | Cc1cccnc1NC(=O)CNC(=O)C12CC3CC(CC(C3)C1)C2
-0.44 | i | COc1ccc(CC(=O)Nc2cccc(/C(C)=N/NC(=O)C3(C)CC3(Br)Br)c2)cc1 (stereo not given)
-2.68 | i | CCOC(=O)c1ccc(N(CC(=O)NC2CCCC2)C(=O)CNC(=O)c2ccco2)cc1
2.81 | i | CCCC(=O)Nc1ccc(C(=O)NCCCn2ccnc2)cc1
-1.08* | -6.76* | Cc1cccc(-n2c(SCC(N)=O)nc3c(c2=O)C2(CCCC2)Cc2ccccc2-3)c1

Given with each value named: part of the list above.
Cc1cccnc1NC(=O)CNC(=O)C12CC3CC(CC(C3)C1)C2
- KCNQ2 block baseline: 0.7
- KCNQ2 block: i
COc1ccc(CC(=O)Nc2cccc(/C(C)=N/NC(=O)C3(C)CC3(Br)Br)c2)cc1 (stereo not given)
- KCNQ2 block baseline: -0.44
- KCNQ2 block: i
CCOC(=O)c1ccc(N(CC(=O)NC2CCCC2)C(=O)CNC(=O)c2ccco2)cc1
- KCNQ2 block baseline: -2.68
- KCNQ2 block: i

Further structures.
KCNQ2 block baseline | KCNQ2 block | Molecule
0.2 | i | CC(C)C(=O)Nc1nnc(CSCc2ccccc2F)s1
-1.09 | i | O=C(CS(=O)(=O)c1c[nH]c2ccccc12)Nc1ccc2c(c1)OCCO2
1.26 | i | C[C@@H]1CCC[C@@]2(O[C@@H](CCO)C[C@H](O)[C@H]2O)O1
-0.29 | i | CC1=C(C#N)c2nc(N)c(C#N)c(C)c2/C1=C\c1ccc(C)cc1
0.03 | i | O=C(c1cc2nc(-c3ccc(F)cc3)cc(C(F)(F)F)n2n1)N1CCOCC1
1.29* | -8.86* | N#Cc1nc(COc2ccc(F)cc2)oc1N1CCC(Cc2ccccc2)CC1
-0.3 | i | CCOC(=O)N(CC)OC(=O)Nc1ccc(Cl)cc1
-0.74 | i | O=c1c2oc3ccccc3c2ncn1Cc1ccc(Cl)cc1
-0.73 | i | COc1ccc(S(=O)(=O)N[C@H](C(=O)O)C(C)C)cc1
0.95 | i | COc1ccc(NC(=O)c2cnc(SC)n2-c2ccc(F)cc2)c(OC)c1

KCNQ2 block baseline | KCNQ2 block | Molecule
-0.06 | i | Cc1cc(C)cc(N(C(=O)CNC(=O)c2cccs2)C(C(=O)NC2CCCC2)c2cccnc2)c1 (stereo not given)
0.41 | i | CCOc1ccc(NC(=O)CC(c2ccccc2)c2ccc(F)cc2)cc1 (stereo not given)
0.71 | i | Cc1ccc(OCC(O)CNC2CCCC2)c(C)c1 (stereo not given)
-0.63 | i | O=C(Nc1nc2ccccc2s1)c1cccc(S(=O)(=O)N2CCc3ccccc32)c1
-0.01 | i | CCc1ccc(N2CC(C)Cn3c2nc2c3c(=O)n(CCN3CCOCC3)c(=O)n2C)cc1 (stereo not given)
0.11 | i | CCC1(C)N=c2c(c(=O)n(C)c(=O)n2C)=NO1 (stereo not given)
-0.23 | i | O=C1OCCN1c1c(-c2ccccc2)c(N2CCOCC2)nc2ccccc12
0.01 | i | CC(C)(C)C(=O)Nc1nnc(SCC(=O)Nc2nccs2)s1
-0.02 | i | Cc1cc(NC(=O)c2ccc3c(c2)C(=O)N(c2cccc(C)c2C)C3=O)no1
-3.3* | -6.41* | O=C(Nc1cc(Cl)cc(Cl)c1)C(c1ccccc1)N1CCCCC1 (stereo not given)

KCNQ2 block baseline | KCNQ2 block | Molecule
0.12 | i | COC(=O)c1c(NC(=O)C2CC(C)=C(C)CC2C(=O)O)sc2c1CCCCC2 (stereo not given)
-0.12 | i | Cc1ccc2c(c1)C(c1ccccc1)C(=O)O2 (stereo not given)
0.11 | i | O=C(NCc1cccnc1)c1ccc([N+](=O)[O-])cc1
1.06 | i | CC(O)Cc1cn([C@@H](CCCCN)C(=O)N2CCNCC2)nn1 (stereo not given in full)
0.24 | i | COc1ccc(CSCC(=O)N/N=C/c2ccc(OCC(=O)NCc3ccco3)cc2)cc1
-1.25 | i | COC(=O)/C=C/C(=O)Nc1ccc(O)c(Cl)c1
0.9 | i | CN(C)/C=C/C(=O)c1ccccc1OCc1cnc(Cl)s1
2.4 | i | CC(C)(C)OC(=O)NCCCC1=CC2=CC(=O)C(C)(OC(=O)c3ccc(Cl)nc3)C(=O)C2=CO1 (stereo not given)
-0.56 | i | CNS(=O)(=O)c1cccc(C(=O)NNC(=O)c2ccc(COc3ccccc3)cc2)c1
-0.13 | i | CCCC1C2C(=O)N(c3ccc(OC)cc3)C(=O)C2ON1c1ccccc1 (stereo not given)

KCNQ2 block baseline | KCNQ2 block | Molecule
-1.69 | i | CCN1CCN(Cc2ccc(NC(=O)c3cc(NC(=O)c4cc(-c5ccc(OC)cc5)n[nH]4)cc(OC)c3)cc2C(F)(F)F)CC1
-0.54 | i | CCN(CC)S(=O)(=O)c1ccc(N2CCOCC2)c(NC(=O)C2=COCCO2)c1
-0.01 | i | Cc1ccc(NC(=O)Cn2c(=O)n(CCCC(=O)NCc3ccco3)c(=O)c3ccccc32)cc1
0.59 | i | Cn1c(SCC(=O)N2CCCc3ccccc32)nc2cccnc21
-0.79 | i | CCCCNC(=O)c1ccc(Cn2c(=S)[nH]c3c([nH]c4ccc(OC)cc43)c2=O)cc1
1.13 | i | CCN(CC(=O)NCc1ccc(F)cc1)C(=O)/C=C/c1ccco1
-0.96 | i | CCNc1nc(NC(C)C)nc(Oc2ccc(OCc3ccccc3)nn2)n1
-0.76 | i | COc1ccc(C(=O)CSc2nc(-c3ccccn3)nc(C)c2Cl)cc1
-0.19 | i | Cc1ccc(NS(=O)(=O)c2ccc(NC(=O)CN(c3cc([N+](=O)[O-])ccc3C)S(C)(=O)=O)cc2)c(C)c1
0.54 | i | Cc1ccccc1N1C(=O)C(Oc2ccc(Cl)cc2)C1CNCC1CCCO1 (stereo not given)

KCNQ2 block baseline | KCNQ2 block | Molecule
0.36 | i | CCc1cccc2c(C(=S)N3CCOCC3)c[nH]c12
0.53 | i | CCN(CC)S(=O)(=O)c1cc(C(=O)NCCN2CCOCC2)ccc1Cl
-1.07 | i | c1ccc(CCNc2nc(-c3ccncc3)cs2)cc1
2.44 | i | COc1cc(C=O)ccc1OS(=O)(=O)c1ccccc1[N+](=O)[O-]
0.84 | i | CC(C)Sc1cc(N2CCCC2)nc(-c2ccccc2)n1
0.63 | i | CC(C)(C)c1ccc(C(=O)NNc2cc(N3CCCCC3)nc(N3CCCCC3)n2)cc1
-0.81 | i | COc1ccc(CN2C(=O)C(CC(C)C)Nc3ncnc(N4CCN(c5ccccc5)CC4)c32)cc1 (stereo not given)
-1.18 | i | O=C(NCC(c1ccco1)N1CCc2ccccc2C1)c1ccccc1Br (stereo not given)
-0.12 | i | O=C(COc1ccccc1)Nc1ccc(OC(F)(F)C(F)F)c(NC(=O)COc2ccccc2)c1
-0.37 | i | O=C(/C=C/c1ccccc1Cl)N1CCOCC1

KCNQ2 block baseline | KCNQ2 block | Molecule
0.03 | i | c1csc(-c2ccn[nH]2)c1
-2.62 | i | CC1=CCCC(C)(C)C1/C=C/C(C)=N/NC(=O)c1ccncc1 (stereo not given)
-0.21 | i | OCC1(Cc2ccccc2F)CCCN(CC2CCCCC2)C1 (stereo not given)
0.28 | i | CCOC(=O)c1nn(-c2ccc(F)cc2)c(=O)cc1OCC(=O)Nc1ccc(F)c(F)c1
-0.29 | i | COc1cc(/C=C/C2=NC(=O)C(C)(C)O2)ccc1O
1.32 | i | COc1ccc2c3c(cccc13)OC2=O
1.98 | i | Nc1ccc(-c2cnc3ccccc3n2)cc1
-0.16 | i | O=C(Nc1cccc(S(=O)(=O)N2CCOCC2)c1)c1ccccn1
-0.37 | i | Cc1nonc1C(=O)N/N=C/c1cccc(O)c1
0.06 | i | CC(C)(C)OC(=O)NCCc1nnc(SCc2ccccc2Cl)o1

KCNQ2 block baseline | KCNQ2 block | Molecule
0.32 | i | COC(=O)c1cc(=O)c2cccc(OC)c2[nH]1
-0.2 | i | NS(=O)(=O)c1cccc(NC(=O)CN2CCc3ccccc32)c1
-1.02 | i | COc1ccc(C2=NN(C)C(=NCc3ccccc3)SC2)cc1
0.96 | i | COc1ccc(C2C(C#N)=C(N)N(c3sc4c(c3C#N)CCCC4)C3=C2C(=O)CC(C)(C)C3)cc1 (stereo not given)
-0.16 | i | O=C(Oc1c(Br)cc(C(=S)N2CCOCC2)cc1Br)c1ccc(Cl)cc1
-2.92 | i | COc1cc(C(=O)Nc2cccc(NC(=O)c3cccs3)c2)cc(OC)c1OC
0.15 | i | CCC[n+]1c(C)sc2c3c(ccc21)CCCC3
-0.27 | i | CCOC(=O)c1cnc2cc(Cl)c(OC)cc2c1NCC1CCCO1 (stereo not given)
1.27 | i | O=C(Cc1ccccc1)N1CCN(C(=O)c2cccs2)CC1
1.12 | i | Cc1ccc(Oc2nnc(-c3ccccc3)c3ccccc23)cc1

KCNQ2 block baseline | KCNQ2 block | Molecule
1.26 | i | Cn1cc(CNC(=O)Nc2ccc3c(c2)OCO3)cn1
-0.13 | i | OCCNc1nc(OCC(F)(F)F)nc(N2CCN(C34CC5CC(CC(C5)C3)C4)CC2)n1
0.05 | i | COc1ccc(/C(C)=N/Nc2ccc(C(=O)O)cc2)c(OC)c1
2.02 | i | Cc1cc(NC(=O)CSc2ccc3nnc(CCNC(=O)c4ccccc4)n3n2)no1
-1.82 | i | O=C(Nc1ccc2c(c1)C(=O)NC2=O)c1cccc(C(F)(F)F)c1
-0.17 | i | COc1ccc(C(=O)Nc2c(N)nc(SCC(=O)N3CCC(C)CC3)[nH]c2=O)cc1OC
-1.1 | i | Cc1n[nH]c(C)c1S(=O)(=O)N1CCCC(C(=O)NC2CCCCC2)C1 (stereo not given)
-0.59 | i | c1ccc(NCCCNc2ccccc2)cc1
1.51 | i | COc1ccc(C2C(C(=O)N3CCC(C(N)=O)CC3)CC(=O)N2c2ccc(OC)cc2)cc1 (stereo not given)
-0.1 | i | CC(=O)c1ccc(NC(=O)Nc2ccc3c(c2)nc(C)n3C)cc1

KCNQ2 block baseline | KCNQ2 block | Molecule
0.28 | i | CCn1c(C)nc2cc(C(=O)N/N=C/c3ccc(O)cc3)ccc21
0.53 | i | CCCCN(CCCC)CC(O)COc1ccccc1C(=O)Nc1ccccc1 (stereo not given)
-1.35 | i | CC12CCC(C(=O)Nc3ccc(Br)cn3)(OC1=O)C2(C)C (stereo not given)
0.01 | i | COc1ccc(-c2coc3cc4oc(=O)cc(-c5ccccc5)c4cc23)cc1F
0.81 | i | Cc1ccc(O)c(N=Nc2ccc(S(=O)(=O)N3CCOCC3)cc2)c1
-0.41 | i | CC(C)C(=O)NC(c1cccc([N+](=O)[O-])c1)c1ccc2cccnc2c1O (stereo not given)
2.5 | i | COc1ccc(-c2ccc(NC(=O)c3ccco3)cc2)nn1
1.36 | i | CCC(Sc1ncccc1C(=O)OCCN1CCCC1=O)C(=O)NCc1ccco1 (stereo not given)
-0.47 | i | CCCn1nnnc1NCc1ccccc1OCc1ccc(F)cc1
1.13 | i | CN1CCCC(C#CC(O)(c2ccccc2)c2ccccc2)C1 (stereo not given)

Overlap with the part before: five compounds; new compounds follow.
KCNQ2 block baseline | KCNQ2 block | Molecule
-0.41 | i | CC(C)C(=O)NC(c1cccc([N+](=O)[O-])c1)c1ccc2cccnc2c1O (stereo not given)
2.5 | i | COc1ccc(-c2ccc(NC(=O)c3ccco3)cc2)nn1
1.36 | i | CCC(Sc1ncccc1C(=O)OCCN1CCCC1=O)C(=O)NCc1ccco1 (stereo not given)
-0.47 | i | CCCn1nnnc1NCc1ccccc1OCc1ccc(F)cc1
1.13 | i | CN1CCCC(C#CC(O)(c2ccccc2)c2ccccc2)C1 (stereo not given)
0.03 | i | COc1cccc(C(=O)NCCC2=CCCCC2)c1OC
-0.06 | i | CCN(CC)C(=O)CC(c1cc(OC)c(OC)c(OC)c1)c1c(OC)cc(OC)c2ccc(=O)oc12 (stereo not given)
1.95 | i | O=C(c1ccc(S(=O)(=O)Nc2ccccc2)cc1)N1CCOCC1
0.52 | i | Cc1cccc(-n2nc3c(c2NC(=O)CCCl)CSC3)c1
-0.12 | i | Cc1cc(=O)[nH]c(SCC(=O)Nc2nc3ccccc3s2)n1
-0.87 | i | O=C1CSC(c2ccccn2)N1c1ccc(C(F)(F)F)cc1 (stereo not given)
-1 | i | COc1ccc(NC(=O)NNS(=O)(=O)c2ccc(OC)c(OC)c2)c(OC)c1
1.1 | i | Cc1c(C(c2ccc(N(C)C)cc2)c2c(C)n(C)n(-c3ccccc3)c2=O)c(=O)n(-c2ccccc2)n1C
0.4 | i | O=C(Nc1ccc2c(c1)CCCN2C(=O)c1cccs1)c1cccc(F)c1
0.12 | i | CCCCN(C)Cc1c(O)ccc2c(=O)c(-c3ccccc3OC)coc12

KCNQ2 block baseline | KCNQ2 block | Molecule
0.51 | i | CC(NC(=O)CSc1nc2ccccc2n1CCC#N)c1ccc(F)cc1 (stereo not given)
-1 | i | Cc1cc(-n2c(SCC(=O)Nc3ccc(Br)cc3)nc3n[nH]c(C)c3c2=N)ccc1Cl
-0.96 | i | Cc1ccc2nc(SCC(=O)Nc3ccc4c(c3)OCCO4)[nH]c2c1
0.03 | i | Cc1ccc(NC(=S)Nn2cnnc2)c(C)c1
-0.13 | i | Cc1ccc(NS(=O)(=O)c2ccc(/C=C/C(=O)O)cc2)cc1Cl
0.1 | i | CC1Cc2ccccc2N1C(=O)CSc1nnnn1Cc1ccccc1 (stereo not given)

These rows are one share of the data; rates above refer to the full screens.
